Screening data from PubChem.
HIV Env fusion – inhibitors of HIV-1 Env-driven cell-cell fusion, primary screen, HeLa-JRFL effector, CEM21 target cells, luciferase; inhibition, % at 12.3 µM; 1.1% of 360,000 active;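 active = mean replicate inhibition score of at least 50 and every replicate individually at or above 50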;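 note: 0% = plate neutral controls and 100% = maraviroc near 300 nM; one replicate is shown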
PABP polyA inh – PABP poly(A) RNA binding inhibitors, primary screen, biochemical, fluorescence polarization, uHTS | Polyadenylate-binding protein 1 (Homo sapiens), P11940 | inhibition, % at 35 µM | 1% of 290,000 active | AID 2014, 2009;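 active = 50% or more with normal probe brightness, or confirmed in later tests; about a fifth of its hits are not listed in these tables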;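 note: calls also rest on retests at 20 µM and on dose response follow-up; controls were probe without protein and protein plus probe with vehicle; some compounds called inactive have numbers as strong as hits; many hits fall short of the cut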
Target sequence (P11940 whole entry, looked up): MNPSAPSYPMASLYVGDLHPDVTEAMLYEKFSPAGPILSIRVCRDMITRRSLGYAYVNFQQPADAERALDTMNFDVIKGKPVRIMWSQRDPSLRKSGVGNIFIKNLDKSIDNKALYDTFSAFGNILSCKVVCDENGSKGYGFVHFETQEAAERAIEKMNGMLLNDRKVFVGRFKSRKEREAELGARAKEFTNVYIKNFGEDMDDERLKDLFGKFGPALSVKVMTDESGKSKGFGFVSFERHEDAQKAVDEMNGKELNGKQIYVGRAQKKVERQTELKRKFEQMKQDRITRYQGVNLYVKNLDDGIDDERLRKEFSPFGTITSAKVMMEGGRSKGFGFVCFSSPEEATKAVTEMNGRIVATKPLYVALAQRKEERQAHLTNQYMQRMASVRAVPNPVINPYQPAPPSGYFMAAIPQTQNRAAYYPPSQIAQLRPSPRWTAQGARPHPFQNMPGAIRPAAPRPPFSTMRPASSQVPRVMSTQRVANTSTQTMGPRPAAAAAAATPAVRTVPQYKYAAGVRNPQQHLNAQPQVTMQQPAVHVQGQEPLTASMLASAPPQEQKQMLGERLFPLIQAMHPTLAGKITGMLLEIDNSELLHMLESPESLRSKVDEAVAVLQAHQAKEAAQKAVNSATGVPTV
MT1-MMP act inh – blockers of MT1-MMP proenzyme processing, primary screen, HT1080 RFP-PRO-GFP cells, GFP/RFP fluorescence; GFP/RFP ratio change, % at 20 µM; 0.061% of 360,000 active; GFP/RFP ratio fluorescence, overnight; percent of plate control window, DMSO zero; Matrix metalloproteinase-14 (Homo sapiens), P50281;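 active = GFP/RFP ratio change of at least 30% with cell ATP level not reduced by more than half and red fluorescence within 50% of control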; note: strong numbers were not always called active
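Test system: HT1080 RFP-PRO-GFP cells; Benchmarks: DMSO and RFP-L50D-GFP cell wells; Timing: cells overnight before dosing, compound overnight, 37 °C, 5% CO2; Compound: one 20 µM compound dose with 1% DMSO; Read-out: GFP/RFP fluorescence ratio.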
CSC inhib – cancer stem cell viability inhibitors, primary screen, luminescence; cancer stem cell-like cells viability; inhibition, % at 7.5 µM; AID 2717, 2010; 1.1% of 300,000 active;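 active = mean at 75% or more and at least half the replicates too; tested in HMLE shEcad cells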;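 note: 0% = median of negative and 100% = median of positive control wells; the first replicate is given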
Rce1 inh – yeast Rce1p protease inhibitors, primary screen, biochemical, fluorescence, cell-free homogeneous; yeast membranes, quenched prenylated peptide cleavage fluorescence; calls only; 0.27% of 290,000 active;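 active = fall in fluorescence gain of 50% or more versus controls, with final raw signal at or below 3038400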;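 note: plate controls were neutral control wells for no effect and wells lacking membranes for full effect; tested at 10 µM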
Target sequence (Q03530 whole entry, looked up): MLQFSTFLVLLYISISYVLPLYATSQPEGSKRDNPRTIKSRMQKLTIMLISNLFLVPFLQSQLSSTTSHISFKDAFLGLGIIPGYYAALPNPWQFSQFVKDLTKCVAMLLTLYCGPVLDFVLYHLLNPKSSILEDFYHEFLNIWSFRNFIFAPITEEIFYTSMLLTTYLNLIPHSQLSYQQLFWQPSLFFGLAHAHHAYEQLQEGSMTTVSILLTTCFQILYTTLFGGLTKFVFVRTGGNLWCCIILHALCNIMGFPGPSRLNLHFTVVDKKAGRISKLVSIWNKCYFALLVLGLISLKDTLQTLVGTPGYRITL
UUG fidelity – modulators of yeast start codon fidelity, primary screen, whole organism, S. cerevisiae, single point, plate reader | 0.13% of 350,000 active | S. cerevisiae UUG-firefly luciferase reporter, luminescence/redox ratio | AID 602363, 2012 | activity score, % at 18.7 µM;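 active = replicate mean at a twofold rise or more, about +100% in these data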;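 note: firefly luciferase made from a UUG start codon reports start codon fidelity; reporter light over untreated wells divided by growth signal over untreated wells; some hits fall short of that in this replicate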
eIF4H inh – human eIF4H binding inhibitors, primary screen, translation initiation inhibitor project, biochemical, uHTS, fluorescence polarization; inhibition, % at 35 µM; AID 2012, 2009; eIF4H fluorescence polarization binding assay; Eukaryotic translation initiation factor 4H (Homo sapiens), Q15056; 0.94% of 290,000 active;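 active = 50% or more with normal probe brightness, or confirmed in later tests; about a fifth of its hits are not listed in these tables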;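 note: calls also rest on retests at 20 µM and on dose response follow-up; 0% = protein and probe with vehicle and 100% = probe without protein; strong numbers were not always called active; many hits fall short of the cut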
eIF4H inh retest – recorded beside eIF4H inh, whose call it bears; inhibition, %; compound at 20 µM; confirmation average;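 mean of two retest wells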
PABP polyA inh retest – recorded beside PABP polyA inh, whose call it bears; inhibition, %; compound at 20 µM; confirmation repeats;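 mean of two retest wells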
MT1-MMP act inh RFP – further read-out of MT1-MMP act inh, marked with its call; RFP signal change, %; measured here: RFP expression control read;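 0 = vehicle wells; hits needed this value within 50% of zero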
An asterisk follows results filed as active; i = inactive; . = not tested or not shown; & = joins results of further samples. A portion of the library; rates above refer to the full screens.

SMILES	HIV Env fusion	PABP polyA inh	MT1-MMP act inh	MT1-MMP act inh RFP	CSC inhib	Rce1 inh	UUG fidelity	eIF4H inh	others
CC1CN(C(=O)CCC(=O)NCc2ccccn2)c2ccccc2O1 (stereo not drawn)	25	6	-1	6	-7	i	-27	2
COc1ccc(OC)c(NC(=O)CSc2nc(C)cs2)c1	.	-7	2	0	-12	i	-1	-3
O=C1N2CCCc3cccc(c32)C12Nc1ccccc1S2 (stereo not drawn)	.	-4	1	1	.	i	-19	1
COCc1cc(=O)[nH]c(SCCS(=O)(=O)c2ccc(C)cc2)n1	10	6	-3	-2	2	i	.	1
COCCCN(C(=O)C1CCCCC1)c1c(N)n(Cc2ccccc2)c(=O)[nH]c1=O	.	.	2	4	-6	.	-20	.
CCSc1nc(C)c(C)c(=O)[nH]1	4	7	3	1	.	i	-11	1
O=C(CCC1CCCC1)NCCS(=O)(=O)N1CCN(c2ccccc2F)CC1	.	.	2	-3	-1	i	.	.
COc1cccc(CNC(=O)C(=O)NCC2CCCO2)c1 (stereo not drawn)	.	-4	3	3	0	i	-5	-3
O=C(NCCCO)C(=O)Nc1cc2c3c(c1)CCN3C(=O)CC2	0	0	0	3	8	i	-18	-4
O=C(COC(=O)c1ccc(F)cc1F)Nc1ccc2c(c1)OCO2	-21	.	2	6	.	.	-14	.
NS(=O)(=O)c1ccc(CCNC(=O)/C=C/c2cccc([N+](=O)[O-])c2)cc1	17	-2	3	3	4	i	.	-7
CCC(=O)C1=C(O)C(c2cccc(Oc3ccccc3)c2)CCC1=O (stereo not drawn)	22	1	1	-9	13	i	-11	1
N#Cc1cc2c(nc1SC1CC(=O)N(c3ccccc3)C1=O)CCC2 (stereo not drawn)	.	1	4	9	13	.	.	8
CCOc1ccc(/C=N/NC(=O)c2cc(-c3cccn3C)n[nH]2)cc1	20	9	2	2	-11	i	.	4
COCCNC(=S)NNC(=O)CSCc1ccc(Cl)cc1Cl	21	-9	7	-1	-4	i	-24	5
CCOC(=O)c1cnc2c(C#N)cnn2c1N	-5	5	-1	4	-10	i	.	1
CCC(C)N(C(=O)COC(=O)CCc1c[nH]c2ccccc12)C1CCS(=O)(=O)C1 (stereo not drawn)	.	-2	2	2	0	i	.	-2
Cc1cccc(N(C)S(=O)(=O)c2ccc(-c3cc(C)no3)s2)c1	-384	-8	6	-8	14	i	-22	-8
COc1ccc(S(=O)(=O)NCC2CCC(C(=O)NCCC(C)C)CC2)cc1 (stereo not drawn)	-40	14	2	2	5	i	-3	-4
O=C(NCC(c1cccs1)N1CCOCC1)c1cc([N+](=O)[O-])ccc1Cl (stereo not drawn)	-24	-9	-1	-1	-10	i	.	-3
CCOc1ccc(C(=O)N(Cc2ccc(OC)cc2)Cc2cc3cc(OC)ccc3[nH]c2=O)cc1	-85	-3	-35	-31	6	i	-16	-12
Cc1ccc(C)c(NC(=O)CCN2CCc3ccccc3C2)c1	5	2	3	3	-8	i	.	9
COc1ccccc1Oc1ccc(S(=O)(=O)NCc2ccccn2)cc1	76*	4	0	-14	-20	i	.	-6
CCOc1cc(C2Nc3ccccc3C(=O)N2c2ccccc2)ccc1O (stereo not drawn)	.	-4	-2	1	-15	i	-15	5
CCOC(=O)CSc1nc(C2CC2)cc(-c2ccc(F)cc2)c1C#N	3	-8	8	-6	15	i	-2	-13
(next part)
SMILES	HIV Env fusion	PABP polyA inh	MT1-MMP act inh	MT1-MMP act inh RFP	CSC inhib	Rce1 inh	UUG fidelity	eIF4H inh	others
COc1ccc(Nc2nnc(SCc3cc([N+](=O)[O-])cc4c3OCOC4)s2)cc1	32	-7	3	2	-6	i	.	-14
Cc1cc(C)cc(NC(=O)N2CCC(c3nc4ccccc4o3)CC2)c1	.	0	8	2	12	i	.	3
Cc1ccc(SCCC(=O)NC(C)(C)C)cc1	15	2	0	0	9	i	6	2
CCC1Nc2ncnc(N3CCCCC3)c2N(Cc2ccc(OC)cc2)C1=O (stereo not drawn)	8&7	.	3&-2	4&0	.	.	-19&-5	.
COc1cc(S(=O)(=O)NCC2OCCc3ccccc32)ccc1-n1cnnn1 (stereo not drawn)	-40	-7	3	-3	.	.	-12	-6
COC(=O)c1cc(NC(=O)C2CC(=O)NC(=NCc3ccc(OC)cc3)S2)cc(C(=O)OC)c1 (stereo not drawn)	-5	-17	2	4	7	i	.	-6
CCOc1ccc(C(=O)NCC(=O)NCCSc2ccc(Br)cc2)cc1OCC	3	.	2	-3	.	.	8	.
NC(=O)c1ccccc1	.	13	-1	3	-12	i	-14	-7
Cc1onc(-c2ccccc2)c1C(=O)NCc1ccc(F)cc1	6	.	-2	-1	-8	i	.	.
COc1ccccc1Cn1c(-c2ccco2)nc2nc3ccccc3nc21	-149	.	-17	5	.	i	1	.
O=C(CCc1ccccc1)NCc1cccnc1	-3	18	4	-2	-4	i	-3	20
CCOC(=O)c1ccc(N2C(=O)C3ON(c4ccccc4)C(c4ccco4)C3C2=O)cc1 (stereo not drawn)	.	-2	-2	2	-5	i	2	2
CCCCN(C)CCNC(=O)C1CCN(S(=O)(=O)c2cccc3nsnc23)CC1	1	0	0	0	9	i	-2	3
CCN(CC)c1ccc(NC(=O)COc2ccc(C)cc2)cc1	.	0	-1	2	-11	i	-16	3
CCOC(=O)c1sc(=S)n(C)c1NC(=O)c1cccc(Br)c1	18	6	1	-13	22	i	-15	-5
COCCCn1c(SCC(=O)N2CCOCC2)nc2ccccc2c1=O	25	4	-1	5	-5	i	-6	7
CN1CCC(N(C)C(=O)CCc2nc3ccccc3c(=O)[nH]2)CC1	-46	20	-1	-1	.	i	10	-3
Cc1ccc(OCc2cc(C(=O)N(C)CCn3ccnc3C)no2)cc1C	-4	2	-2	0	50	i	-26	-9
COc1ccc(Nc2nc(-c3sc(N)nc3C)cs2)cc1	-21	4	0	7	-4	i	-26	9
COC(=O)c1ccc(OC(C)C(=O)c2ccc(C)cc2)cc1 (stereo not drawn)	22	0	-1	0	-2	i	6	-6
CCCCn1c(SCC(=O)OCC)nnc1-c1ccoc1C	.	-3	-6	2	8	i	-21	-8
CCCn1nnc(NC(=S)NC(=O)C(C)(C)C)n1	-2	7	1	2	-7	i	-24	-9
CCN1C[C@@H]2[C@@H]3C(=O)N(Cc4ccccc4)C(=O)[C@@H]3[C@](Cc3ccccc3)(C1=O)N2C(=O)c1ccc(C(C)(C)C)cc1	4	.	-14	-13	.	.	-3	.
O=C(Nc1ccccc1-c1ccccc1)c1ccco1	4	2	3	3	17	i	-22	-10
COc1cc(CN2CCCN(C)CC2)cc([N+](=O)[O-])c1O	21	-8	0	2	-3	i	-9	8
Later entries:
SMILES	HIV Env fusion	PABP polyA inh	MT1-MMP act inh	MT1-MMP act inh RFP	CSC inhib	Rce1 inh	UUG fidelity	eIF4H inh	others
CC(C(=O)Nc1ccccc1)N(C)Cc1cccs1 (stereo not drawn)	-1	1	-4	-2	-18	i	-3	5
CCNS(=O)(=O)c1ccc(NC(=O)c2ccc(Cn3cc([N+](=O)[O-])cn3)o2)cc1	-2	2	6	-6	-1	i	.	-17
COc1ccc(S(=O)(=O)C(C#N)c2nc3ccccc3nc2N2CCCC(C)C2)cc1 (stereo not drawn)	.	118	-35	2	41	i	-20	122	eIF4H inh retest=4;PABP polyA inh retest=4
Cc1cc(NC(=O)c2ccc(Br)cc2)nc(C)n1	-3	0	1	0	.	i	-7	-5
CC(C)c1ccc(NC(=O)C(c2ccc3c(c2)OCO3)N2CCCCC2)cc1 (stereo not drawn)	-1	1	-6	-10	12	i	11	-8
COc1ccc(Br)c(C(=O)N2CCN(S(=O)(=O)c3cccs3)CC2)c1	14	0	-3	-1	2	i	.	-6
CCCCC(=O)Nc1nn(CCC)c2nc3ccccc3cc12	.	7	-4	-7	-3	i	-5	-6
Cc1c(-c2ccccc2)[n+](=O)c2c(n1[O-])CCC2	.	-4	-7	12	5	i	-19	7
Cc1ccc(NC2=NCCCCC2)cc1C	-16	-7	-2	1	0	.	-7	-12
CCCN(CCC)CCN1C(=O)C2C(C(=O)Nc3ccc(C)cc3)C3C=CC2(O3)C1C(=O)NC1CCCCC1 (stereo not drawn)	9	-4	6	4	-7	i	-14	3
Cc1cc(C)c2nc(N(CCN(C)C)C(=O)/C=C/c3cccs3)sc2c1	-5	-6	3	1	-14	i	-7	-16
CCOC(=O)C1CCN(S(=O)(=O)c2ccc3[nH]c(=O)oc3c2)CC1	-14	-10	1	-6	-2	i	-21	-7
Cc1ccc(NC(=O)C(C)OC(=O)Cn2cnc3ccccc3c2=O)cc1 (stereo not drawn)	-11	.	1	1	-26	i	-18	.
O=C(Nc1ccc2c(c1)OCCO2)C1CCN(S(=O)(=O)c2ccc(Br)s2)CC1	.	2	0	-12	1	i	1	-7

Part of the list above in order of SMILES length, smallest number first:
SMILES	HIV Env fusion	PABP polyA inh	MT1-MMP act inh	MT1-MMP act inh RFP	CSC inhib	Rce1 inh	UUG fidelity	eIF4H inh	others
NC(=O)c1ccccc1	.	13	-1	3	-12	i	-14	-7
CCOC(=O)c1cnc2c(C#N)cnn2c1N	-5	5	-1	4	-10	i	.	1
CC(C(=O)Nc1ccccc1)N(C)Cc1cccs1 (stereo not drawn)	-1	1	-4	-2	-18	i	-3	5
COCCNC(=S)NNC(=O)CSCc1ccc(Cl)cc1Cl	21	-9	7	-1	-4	i	-24	5
Cc1ccc(C)c(NC(=O)CCN2CCc3ccccc3C2)c1	5	2	3	3	-8	i	.	9
Cc1c(-c2ccccc2)[n+](=O)c2c(n1[O-])CCC2	.	-4	-7	12	5	i	-19	7
CCOc1cc(C2Nc3ccccc3C(=O)N2c2ccccc2)ccc1O (stereo not drawn)	.	-4	-2	1	-15	i	-15	5
N#Cc1cc2c(nc1SC1CC(=O)N(c3ccccc3)C1=O)CCC2 (stereo not drawn)	.	1	4	9	13	.	.	8
Cc1cc(C)c2nc(N(CCN(C)C)C(=O)/C=C/c3cccs3)sc2c1	-5	-6	3	1	-14	i	-7	-16
CC(C)c1ccc(NC(=O)C(c2ccc3c(c2)OCO3)N2CCCCC2)cc1 (stereo not drawn)	-1	1	-6	-10	12	i	11	-8
O=C(NCC(c1cccs1)N1CCOCC1)c1cc([N+](=O)[O-])ccc1Cl (stereo not drawn)	-24	-9	-1	-1	-10	i	.	-3
CCOC(=O)c1ccc(N2C(=O)C3ON(c4ccccc4)C(c4ccco4)C3C2=O)cc1 (stereo not drawn)	.	-2	-2	2	-5	i	2	2
CCN1C[C@@H]2[C@@H]3C(=O)N(Cc4ccccc4)C(=O)[C@@H]3[C@](Cc3ccccc3)(C1=O)N2C(=O)c1ccc(C(C)(C)C)cc1	4	.	-14	-13	.	.	-3	.
